High-throughput results: PubChem BioAssay, National Center for Advancing Translational Sciences (NCATS)
VACV mCherry inh: vaccinia inhibition (mCherry reporter); AID 720579; 310,000 compounds, 0.63% hits; Vaccinia virus mCherry reporter infection, fluorescence; about a quarter of the inactives have no number; Potency, µM (titrated, usually from 36.5 µM), inactives show at the highest dose activity change, negative = inhibition, most hits filed as inhibitors; active = well fitted inhibition curve with a large enough effect; inconclusive = small, poorly fitted or top-dose-only effect; inactive = no such curve, though single readings can be large or run the other way; tested in A549 cells; also: nearly all actives have a fitted effect of over 35% in size; inactives centre near -10
VACV Venus inh: inhibitors of vaccinia virus (Venus reporter); Vaccinia virus Venus reporter expression, fluorescence; Potency, µM (series often up to 36.5 µM), inactives show at the top dose activity change, negative = inhibition, hits mostly inhibitors; 330,000 compounds, 0.46% hits; AID 720580; active means well fitted inhibition curve with a large enough effect; inconclusive means small, poorly fitted or top-dose-only effect; inactive means no such curve, though single readings can be large or run the other way; tested in A549 cells; also: nearly all actives have a fitted effect of over 30% in size; inactives centre near -10
Active calls of the source: *; i = inactive; ? = inconclusive; nt = no result given; & = joins results of further samples; [ ] = dose if it differs, or a comment. % is scaled to controls: 0 for no effect and ±100 for the full control effect; potency is read from the fitted curve at half-maximal effect.

SMILES	VACV mCherry inh	VACV Venus inh
CCCCCOc1ccc(C2NC(=O)NC2=O)cc1 (stereo not given)	-23%	-5%
COc1cccc(C(=O)O[C@H]2[C@H](C)NS(=O)(=O)[C@H]3C[C@@H]4C=C[C@]23O4)c1	-3%	0%&-27%
COCCn1c(SCC(=O)N2CCN(c3ccccc3)CC2)nc2c(c1=O)SC(C)C2 (stereo not given)	-13%	-7%
CCCn1c(O)c2ccc(C(=O)N=NC(=O)c3cccnc3)cc2c1O	-3%	8%
COC(=O)C(O)(c1ccc(NC(=S)NC(=O)c2ccc(Cl)cc2Cl)cc1)C(F)(F)F (stereo not given)	-3%	-20%
[N-]=[N+]=NCC/C=C\C1NS(=O)(=O)OCC1O (stereo not given)	i	0%
C[C@H](CO)N1C[C@H](C)[C@@H](CN(C)C(=O)OCc2ccccc2)OCc2cn(nn2)CCCC1=O	-5%	-7%
CCCN(CC(=O)Nc1ccccc1C)C(=O)COC(=O)c1cnc(C)cn1	i	8%
COc1ccc(CNC(=O)CN(c2ccccc2OC)S(=O)(=O)c2ccc(C)cc2)cc1	?	-15%
O=C(NCc1cccs1)c1nc2c(nnn2Cc2ccccc2Cl)c(=O)[nH]1	?	7.1µM*
Cc1ccc(S(=O)(=O)NC(C(=O)Oc2cc3oc(=O)cc(C)c3cc2Cl)C(C)C)cc1 (stereo not given)	-22%	-15%
CN(C(=O)COC(=O)c1cc(=O)[nH]c2ccccc12)C1CCCCC1	-11%	-15%
COCCNS(=O)(=O)c1ccccc1	-9%	-1%
O=S(=O)(NCCCSc1ccccc1)c1ccccc1F	-28%	-6%
COc1ccccc1N(CC(=O)NC1CC2CCC1C2)S(=O)(=O)c1ccc(C)cc1 (stereo not given)	-11%	?
Cc1nnc(NC(=O)CSc2nnc3ncccn23)s1	-6%	-9%
COCCNC(=S)N1CCC(c2nc(-c3ccc(F)cc3)no2)CC1	-11%	-21%
COc1cc(NC(=O)CCNS(=O)(=O)c2ccc3c(c2)CCC(=O)N3)cc(OC)c1	-8%	-1%
Cc1c(Cl)cccc1NC(=O)c1cnc2sc(N3CCOCC3)nn2c1=O	-11%	-5%
CN(CCO)C1=NS(=O)(=O)c2cc([N+](=O)[O-])ccc21	?	?
CCn1c(=O)c2sccc2n(CC(=O)NCCC2=CCCCC2)c1=O	4%	-5%
Cn1c(CCCOc2ccc(Cl)cc2Cl)nnc1SCC(=O)Nc1ccc(F)c(Cl)c1	-6%	?
Cc1ccccc1Cn1c(=N)n(CC(O)c2ccco2)c2ccccc21 (stereo not given)	?	-22%
C#CCN(N(C)c1ncc(C(F)(F)F)cc1Cl)S(=O)(=O)c1ccc2ccccc2c1	-14%	0%
CCN1CCN(c2ccc(S(=O)(=O)N3CCCCC3)cc2NC(=O)Cc2ccc(Cl)c(Cl)c2)CC1	?	-28%
O=C(COC(=O)c1ccc(Sc2ccccc2)c([N+](=O)[O-])c1)NC1CCS(=O)(=O)C1 (stereo not given)	i	-8%
Nc1c(C(=O)c2ccccc2)sc2snc(SCC(=O)c3ccccc3)c12	i	-8%
Cc1ccc2nc(-c3ccc(C)c(NC(=O)COc4ccc(Cl)cc4)c3)oc2c1	20%	-10%
CC(=O)Nc1ccc(S(=O)(=O)NCC2CCC(C(=O)NCc3ccccc3)CC2)cc1 (stereo not given)	-5%	-3%
CCN(CC)c1nc(-c2ccc(C(C)(C)C)cc2)nc2ccccc12	0%	-18%
Cc1ccc(S(=O)(=O)NC(=O)Nc2ccc(C)cn2)cc1	i	-3%
COc1cc2cccc(OC)c(=O)c2c(O)c1OC	i	-10%
O=C(c1cc(-c2ccccc2)nn1-c1ccccc1)N1CCN(S(=O)(=O)c2ccc(F)cc2)CC1	i	-13%
Nc1nc(Nc2cccc(F)c2)nc2ccccc12	?	?
CCCn1c2ccccc2c2cnn(CC(=O)NCc3ccccc3Cl)c(=O)c21	-5%	-1%
O=[N+]([O-])c1ccc(N2CCCCC2)c2ncccc12	-16%	-3%

Shown with values under each structure: three of the compounds above.
Each structure is followed by: VACV mCherry inh	VACV Venus inh
> Cc1ccc(S(=O)(=O)NC(=O)Nc2ccc(C)cn2)cc1
    i	-3%
> COc1cc2cccc(OC)c(=O)c2c(O)c1OC
    i	-10%
> O=C(c1cc(-c2ccccc2)nn1-c1ccccc1)N1CCN(S(=O)(=O)c2ccc(F)cc2)CC1
    i	-13%

(continued)
SMILES	VACV mCherry inh	VACV Venus inh
CCOc1ccc2oc(-c3ccccc3)c(C(N)=O)c2c1	-15%	-5%
CC1(C)CC(=O)C=C(NCc2ccc(Cl)c(Cl)c2)C1	-15%	-8%
CCc1cc2cc3c(cc2nc1SCC(=O)OC(C)C)OCO3	-4%	-15%
O=C1NC2C(O)C(O)C(O)C(O)C2c2cc3c(c(O)c21)OCO3 (stereo not given)	2.2µM*	0.28µM*
Cc1ccc2nc(C(C)(C)C)c(Cc3ccccc3C(F)(F)F)n2c1	26%	-8%
CCOc1ccccc1NC(=O)CN(C)S(=O)(=O)c1ccc(OC)c(C)c1	-27%	-10%
Cc1ccc(S(=O)(=O)CC(c2ccccc2)N2CCCCC2)cc1 (stereo not given)	-12%	-13%
Nc1nc(CCl)nc(Nc2ccc3ccccc3c2)n1	?	?
c1ccc(-n2c(SCC3CCCCO3)nnc2-c2cnccn2)cc1 (stereo not given)	nt	-7%
COCCNc1nc(NCc2ccc(C(C)C)cc2)c2sccc2n1	?	-29%
O=C(NC1CCCN(Cc2ccc(Cl)cc2)C1)c1ccnc(Cl)c1 (stereo not given)	-7%	-12%
Cc1cnc(-n2ncc(C(=O)NCc3ccncc3)c2-c2cccs2)nc1-c1ccc(F)cc1	i	-16%
COc1cccc(NC(=O)N(C)C[C@H]2Oc3cc(Br)ccc3S(=O)(=O)N([C@H](C)CO)C[C@H]2C)c1	-22%	-17%
O=C(C1CC1)n1cc(C(=S)N2CCOCC2)c2ccccc21	nt	-5%
O=S(=O)(Nc1ncnc2sc3c(c12)CCC3)c1ccc(Cl)s1	0%	-3%
O=C(NCc1ccccc1)c1onc(CSc2nc3ccccc3[nH]2)c1C(=O)NCc1ccccc1	-28%	?
CCCCCCCC(=O)Nc1cc(C(=O)NCCC)ccc1N1CCC2(CC1)CC(c1cccc(Br)c1)=NO2	16%	-6%
CC1(C)CC(=O)c2cc(C#N)c(=O)n(-c3ccc(Cl)cc3)c2C1	-9%	-8%
COC(=O)c1sccc1NN1C(=O)c2ccccc2C1=O	-12%	-10%
CCOC(=O)c1ccc(NC(=O)c2ncn(-c3ccccc3)n2)cc1	-8%	-4%
Cc1ccc(OCC(=O)NNc2c3ccccc3nc3ccccc23)cc1	-18%	?
CC(=O)Nc1ccc(C(=O)N2CCCCC2c2cc(C(=O)NCc3ccc(F)cc3)no2)cc1 (stereo not given)	7%	-2%
CSCCC(C(=O)OCC(=O)c1ccc(C)c(C)c1)N1C(=O)c2cc(Cl)c(Cl)cc2C1=O (stereo not given)	-9%	-7%
CC(C)(C)[C@@H]1COC(=O)[C@@H](Cc2ccc(F)cc2)CC/C=C\C[C@@H](CC(=O)N(CCO)Cc2ccccc2)C(=O)N1	-13%	?
COc1ccc(NC(=O)Nc2cccc3c2O[C@H](CN(C)S(=O)(=O)c2ccc(OC)cc2)[C@@H](C)CN([C@H](C)CO)C3=O)cc1	-7%	-18%
CCCCn1c(O)c(C(C)=NC(C)c2ccccc2)c(=O)[nH]c1=O (stereo not given)	nt	-28%
Cc1ccc2[nH]c3c(c2c1)CN(C(=O)CN1C[C@H]2C[C@@H](C1)c1cccc(=O)n1C2)CC3	-5%	1%
Cc1cc(=O)oc2cc(OC(=O)CCCCCN3C(=O)c4ccccc4C3=O)ccc12	-12%	-5%
Cc1ccc(-n2nnc3c(SCC(=O)NCc4ccco4)ncnc32)cc1	-29%	-25%
O=C(C1CC(c2ccc(F)cc2)=NO1)N1CCN(c2ccccc2)CC1 (stereo not given)	i	-7%
CN(CC(=O)Nc1ccccc1Br)C(=O)CCc1ccccc1	-24%	4%
Fc1ccc(-n2c(-c3ccco3)nc3nc4ccccc4nc32)cc1	nt	0%
CCc1ccc(N2CC(C(=O)N/N=C/c3ccccc3OC)CC2=O)cc1 (stereo not given)	-24%	-19%
Cc1cc(C)c(C#N)c(SCc2ccc3c(c2)OCO3)n1	-2%	-13%
CCCCNc1cc(Cl)nc(N)n1	-12%	-15%
O=C(COc1ccccc1Cl)Nc1ccc2nc(SCC(=O)N3CCOCC3)sc2c1	-12%	-14%
CCc1nc2ccccc2n1CC(O)COCC1CC=CCC1 (stereo not given)	19%	-14%
CCOCCn1ccc2c(OCC(=O)Nc3ccc(OC)c(OC)c3)cccc2c1=O	-10%	-13%
CCOc1cc(C)c(Cl)cc1S(=O)(=O)N(C)C	nt	-12%
Cc1ccc(C)c(OCCC(=O)Nc2cccc(S(=O)(=O)N3CCCCC3)c2)c1	-15%	-26%
CC(C)(C)c1cc(C(=O)CCN2CCOCC2)cc(C(C)(C)C)c1O	11µM*	?
Cc1cccn2c(=O)c3cc(C(=O)NCc4ccc(F)cc4)c(=N)n(CCCN4CCOCC4)c3nc12	-2%	3%
CCOC(=O)c1ccccc1NC(=O)Cc1c(C(=O)O)n(C)c2ccccc12	i	-1%
O=C(C1COc2ccccc2O1)N(Cc1cccnc1)c1nc2c(Cl)cccc2s1 (stereo not given)	i	-20%
CC1CCN(Cc2nnnn2CCCC(=O)N(C)C(C)c2ccccn2)CC1 (stereo not given)	0%	-8%
CCCOc1ccc(C(O)(CCC)CCN2CCCCC2)cc1 (stereo not given)	-11%[1.46 µM]	-13%
CN(Cc1ccc(Cl)cc1)C(=O)c1cc(S(=O)(=O)N2CCOCC2)ccc1N1CCCC1	-7%	1%
C=CC(=O)Nc1sc2c(c1C(N)=O)CCCC2	?	-26%
O=C(NCc1nnc(SCC(=O)N2CCN(c3ccccc3)CC2)o1)c1c(F)cccc1Cl	0%	-10%
O=C1C(Cc2c[nH]c3ccccc23)NC(=S)N1C1CCCCC1 (stereo not given)	-5%	-24%
CCCSc1nc(C)c(C(C)=O)cc1C#N	i	0%
C[N+](C)(C)CCOC(=O)CCC(=O)OCC[N+](C)(C)C	-15%	-12%
CCOC(=O)CS(=O)(=O)c1ccc(O)cc1	-9%	-14%
Cc1ccc(-c2ccc(/C=N/O)o2)cc1[N+](=O)[O-]	-29%	?
Cc1ccc(C)c(NC(=O)CN(C)C(=O)c2cc(S(=O)(=O)N3CCOCC3)ccc2N2CCCC2)c1	-1%	-11%
CCc1ccc2c(c1)C(=O)C[C@]1(CCC[C@H](C)C1)O2	i	-5%
CCCCN(CC)CCNC(=O)c1cc2c(=O)n(CC)c3ccccc3c2s1	-21%	-23%&-23%
CCCNC(=O)c1cc(S(=O)(=O)N2CCCCC2)ccc1N1CCOCC1	-13%	2%
CCC(=O)Nc1ccccc1-c1nc2ccccc2n(CC(=O)c2ccc(C)cc2)c1=O	-18%	-7%
CNc1nnc(-c2cc3cc(Cl)ccc3oc2=O)s1	nt	-11%

Entries above that contain a CF3 group:
SMILES	VACV mCherry inh	VACV Venus inh
COC(=O)C(O)(c1ccc(NC(=S)NC(=O)c2ccc(Cl)cc2Cl)cc1)C(F)(F)F (stereo not given)	-3%	-20%
C#CCN(N(C)c1ncc(C(F)(F)F)cc1Cl)S(=O)(=O)c1ccc2ccccc2c1	-14%	0%
Cc1ccc2nc(C(C)(C)C)c(Cc3ccccc3C(F)(F)F)n2c1	26%	-8%

Next section
SMILES	VACV mCherry inh	VACV Venus inh
Cc1ccc(OCCn2c(NC(=O)c3ccco3)nc3ccccc32)cc1	?	?
CCC(=O)N1CCCc2cc(S(=O)(=O)N3CCCc4ccccc43)ccc21	-14%	?
Cc1ccc(-n2c3c(c(=O)[nH]c2=O)C(NC(=O)c2ccccc2C)(C(F)(F)F)C(=O)N3)cc1 (stereo not given)	5%	-4%
Cc1ccc(C(C)C)c(OCC(=O)Nc2ccc(O)c(-c3nc4cc(Cl)ccc4o3)c2)c1	-5%	-5%
CCOc1ccc(C2c3c(oc4ccccc4c3=O)C(=O)N2Cc2ccc3c(c2)OCO3)cc1 (stereo not given)	-12%	-14%
CC1CCCCC1NC(=O)C1CC=CCC1C(=O)O (stereo not given)	-2%	-4%
CCCCN(C)C(=O)c1nc2ccccn2c1CN1CCN(c2ccccn2)CC1	i	-10%
CCC(=O)Nc1nnc(SCCN2CCOCC2)s1	i	-4%
CN(C)c1ccc(S(=O)(=O)N2CCCCC2)cc1NC(=O)CN1C(=O)NC2(CCCC2)C1=O	1%	0%
Cc1c(NC(=O)COC(=O)c2cccn2C)c(=O)n(-c2ccccc2)n1C	i	-6%
Cc1ccc(OCC(=O)Nc2ccncc2)cc1	-11%	-18%
CCCCc1nn(-c2cc(Cl)ccc2OC)c2c1C(=O)CC(C)(C)C2	-12%	-5%
O=C(NCC(=O)N(Cc1cccs1)C(C(=O)NC1CCCC1)c1cccnc1)c1ccco1 (stereo not given)	-13%	3%

6 entries already listed, sorted by length of the SMILES, low to high:
SMILES	VACV mCherry inh	VACV Venus inh
CC1CCCCC1NC(=O)C1CC=CCC1C(=O)O (stereo not given)	-2%	-4%
Cc1ccc(OCCn2c(NC(=O)c3ccco3)nc3ccccc32)cc1	?	?
CCCCc1nn(-c2cc(Cl)ccc2OC)c2c1C(=O)CC(C)(C)C2	-12%	-5%
CCC(=O)N1CCCc2cc(S(=O)(=O)N3CCCc4ccccc43)ccc21	-14%	?
Cc1c(NC(=O)COC(=O)c2cccn2C)c(=O)n(-c2ccccc2)n1C	i	-6%
CN(C)c1ccc(S(=O)(=O)N2CCCCC2)cc1NC(=O)CN1C(=O)NC2(CCCC2)C1=O	1%	0%

The order is random; any-hit rate near 0.87%.
